Screening results: PubChem, Johns Hopkins Ion Channel Center
KCNQ2 pot: enhances the rat KCNQ2 potassium channel | O88943 | CHO-K1 KCNQ2, FluxOR thallium flux fluorescence; active compounds read high | 0.54% of 310,000 active | B-score at 10 µM;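 active = fluorescence ratio B-score at least 3 SD of library B-scores, with initial fluorescence B-score within 3 SD, cut at about 5.3 in these data; same plate scores as AID 2156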;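 also: B-score of peak minus minimum over baseline fluorescence ratio after K+ and Tl+ stimulus; positive B-score means potentiation of KCNQ2 with more thallium influx and brighter signal; only the inactives scoring about 0 or higher are listed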
Target sequence (O88943 whole entry, looked up): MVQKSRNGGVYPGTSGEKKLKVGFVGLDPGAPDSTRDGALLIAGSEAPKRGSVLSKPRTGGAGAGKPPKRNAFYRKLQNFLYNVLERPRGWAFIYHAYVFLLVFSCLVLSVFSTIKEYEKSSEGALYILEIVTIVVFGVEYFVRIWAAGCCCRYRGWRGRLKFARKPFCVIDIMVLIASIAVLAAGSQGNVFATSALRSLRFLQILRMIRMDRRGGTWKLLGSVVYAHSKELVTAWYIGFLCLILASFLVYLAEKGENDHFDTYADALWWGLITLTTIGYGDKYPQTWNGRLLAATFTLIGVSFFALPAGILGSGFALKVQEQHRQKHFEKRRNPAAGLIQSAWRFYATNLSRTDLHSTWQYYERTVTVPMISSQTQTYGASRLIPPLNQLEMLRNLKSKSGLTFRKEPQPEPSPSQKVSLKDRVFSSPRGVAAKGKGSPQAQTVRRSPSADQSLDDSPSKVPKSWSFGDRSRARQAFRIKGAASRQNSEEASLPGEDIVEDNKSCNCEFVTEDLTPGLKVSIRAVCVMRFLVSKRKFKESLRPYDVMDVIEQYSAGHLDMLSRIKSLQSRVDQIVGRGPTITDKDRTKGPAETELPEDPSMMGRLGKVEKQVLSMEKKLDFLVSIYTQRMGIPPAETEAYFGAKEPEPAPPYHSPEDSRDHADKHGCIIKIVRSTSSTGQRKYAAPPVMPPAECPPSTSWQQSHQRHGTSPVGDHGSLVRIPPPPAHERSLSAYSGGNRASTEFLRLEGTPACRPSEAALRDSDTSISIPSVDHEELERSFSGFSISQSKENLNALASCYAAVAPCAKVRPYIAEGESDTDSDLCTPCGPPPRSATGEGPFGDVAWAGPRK
KCNQ2 pot baseline: second read-out of KCNQ2 pot, no call of its own (marks repeat the call); B-score; compound at 10 µM; measured here: initial fluorescence intensity artifact check;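 brightness before thallium and not channel activity; 0 = typical well and far values either way flag optical interference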
Numbers without * were called inactive.

What do the screens show for `CN(C)S(=O)(=O)N1CCN(c2cc(Cl)ccc2Cl)CC1`?
KCNQ2 pot: 0.02; KCNQ2 pot baseline: -1.21

What do the screens show for `CCC(N)C12CC3CC(CC(O)(C3)C1)C2` (stereo not drawn)?
KCNQ2 pot: 0.59; KCNQ2 pot baseline: 0.55

How did COc1ccc(/C=C/C(=O)NC(=S)NNC(=O)Cc2cccs2)cc1OC do in these assays?
KCNQ2 pot: 1.29; KCNQ2 pot baseline: -1.07

Results for CCO[C@@H]1OC(C(=O)O)=C[C@H](c2csc3ccccc23)[C@H]1CCCO ?
KCNQ2 pot: 1.76; KCNQ2 pot baseline: -1.29

What do the screens show for `O=C1C2CC=CCC2C(=O)N1c1ccc(NCCc2ccc(Cl)cc2)c([N+](=O)[O-])c1` (stereo not drawn)?
KCNQ2 pot: 0.69; KCNQ2 pot baseline: 0.27

What do the screens show for `CCN(CCNC(=O)C1CCCN(c2ncnc3c2nc2n3CCCCC2)C1)Cc1ccccc1` (stereo not drawn)?
KCNQ2 pot: 0.3; KCNQ2 pot baseline: 0.1

What do the screens show for `Cc1cc(Br)c(Cl)cc1NC(=O)CN1C(=O)C2C3CC(c4ccccc4)C(C3)C2C1=O` (stereo not drawn)?
KCNQ2 pot: 0.09; KCNQ2 pot baseline: -0.07

Results for O=C(Nc1ccccc1F)n1ncc2cc(Cl)ccc21 ?
KCNQ2 pot: 0.07; KCNQ2 pot baseline: -2.56

Results for Cc1ccccc1CNC(=O)C(=O)NCC1CCCN1S(=O)(=O)c1cccs1 (stereo not drawn) ?
KCNQ2 pot: 0.59; KCNQ2 pot baseline: 0.32

What do the screens show for `CNS(=O)(=O)c1cccc(C(=O)OCC(=O)N2CC(C)OC(C)C2)c1` (stereo not drawn)?
KCNQ2 pot: 1.16; KCNQ2 pot baseline: 1.17

What do the screens show for `Cc1cc(S(=O)(=O)NCC(C)C)ccc1OCC(=O)NCC1CCCO1` (stereo not drawn)?
KCNQ2 pot: 0.07; KCNQ2 pot baseline: -2.17

What do the screens show for `O=C1CN(c2ccc(Cl)cc2)C2(CCCCC2)S1`?
KCNQ2 pot: 1.24; KCNQ2 pot baseline: 1

Results for NC(CC(=O)O)c1ccc(Br)cc1 (stereo not drawn) ?
KCNQ2 pot: 0.3; KCNQ2 pot baseline: 0.01

How did Cc1ccccc1N1CC(C(=O)N2CCc3ccccc32)CC1=O (stereo not drawn) do in these assays?
KCNQ2 pot: 0.03; KCNQ2 pot baseline: 2.37

Results for COc1ccccc1C(=O)Nc1ccnn1C1CCN(C(=O)c2ccoc2C)CC1 ?
KCNQ2 pot: 0.23; KCNQ2 pot baseline: 1.05

How did CCOC(=O)CC(=O)CSc1nnc(Cn2c(=O)sc3ccccc32)n1C do in these assays?
KCNQ2 pot: 0.19; KCNQ2 pot baseline: 0.71

How did CC(C)CCOc1ccc(C2CC(=O)N(C)C2=O)cc1 (stereo not drawn) do in these assays?
KCNQ2 pot: 0.51; KCNQ2 pot baseline: 0.97

How did CCCOc1ccc(C2/C(=C(\O)c3c(C)[nH]c(C(=O)OC)c3C)C(=O)C(=O)N2CCN(C)C)cc1 (stereo not drawn) do in these assays?
KCNQ2 pot: 0.94; KCNQ2 pot baseline: 0.08

What do the screens show for `COc1ccc(OC)c2c(C)cc(N3CCCCCC3)nc12`?
KCNQ2 pot: 0.34; KCNQ2 pot baseline: 0.39

What do the screens show for `C/C(CC(=O)Nc1ccc2c(c1)OCCO2)=N\NC(=O)Cc1ccccc1`?
KCNQ2 pot: 0.01; KCNQ2 pot baseline: -0.11

How did C=C(C)Cc1c(C)c(C#N)c2[nH]c3ccccc3n2c1=O do in these assays?
KCNQ2 pot: 1.03; KCNQ2 pot baseline: -0.84

Results for COc1ccccc1N1CCN(S(=O)(=O)CCNC(=O)c2ccccc2Br)CC1 ?
KCNQ2 pot: 1.19; KCNQ2 pot baseline: 0

How did c1ccc(Cn2nnnc2-c2ccco2)cc1 do in these assays?
KCNQ2 pot: 0.36; KCNQ2 pot baseline: -0.22

How did Nc1c(-c2ccccc2)c(CSc2nc3ccccc3[nH]2)nn1-c1ccc(C(=O)O)cc1 do in these assays?
KCNQ2 pot: 1.19; KCNQ2 pot baseline: 0.36

Results for O=C(CSc1n[nH]c(-c2ccncc2)n1)Nc1ccccc1C(F)(F)F ?
KCNQ2 pot: 0.38; KCNQ2 pot baseline: 0.61

Results for O=C(NCc1ccccn1)c1cccc(NS(=O)(=O)c2cccc(F)c2)c1 ?
KCNQ2 pot: 0.29; KCNQ2 pot baseline: 0.11

What do the screens show for `CCOc1cc(CN2CCN(CCc3ccccc3)C(CCO)C2)ccc1OC` (stereo not drawn)?
KCNQ2 pot: 1.33; KCNQ2 pot baseline: -0.8

Results for CCOC(=O)c1ccc(COc2nc3ccccc3nc2-c2ccccc2NC(C)=O)o1 ?
KCNQ2 pot: 0.77; KCNQ2 pot baseline: 0.52

How did O=C(CS(=O)CC(=O)N(c1cccc(F)c1)C(C(=O)NC1CCCCC1)c1ccco1)Nc1ccc(F)cc1 (stereo not drawn) do in these assays?
KCNQ2 pot: 1.59; KCNQ2 pot baseline: -2.96

How did COc1cc(C(=O)Nn2c(C)nc3ccccc3c2=O)cc(OC)c1OC do in these assays?
KCNQ2 pot: 2.47; KCNQ2 pot baseline: 0.82

What do the screens show for `CCC(C)(C)n1nnnc1C(C(C)C)N(Cc1ccco1)Cc1cc2cc3c(cc2[nH]c1=O)OCO3` (stereo not drawn)?
KCNQ2 pot: 0.54; KCNQ2 pot baseline: 0.27

How did O=C(/C=C\Nc1ccc(S(=O)(=O)Nc2ncccn2)cc1)c1cccc2ccccc12 do in these assays?
KCNQ2 pot: 0.51; KCNQ2 pot baseline: -0.36

Results for Cc1ccc(NC(=O)c2cc(S(=O)(=O)NCCC3=CCCCC3)ccc2F)cc1F ?
KCNQ2 pot: 0.69; KCNQ2 pot baseline: -1.47

How did COc1ccc(OCC(=O)Nc2cc(OC)cc(OC)c2)cc1 do in these assays?
KCNQ2 pot: 1.41; KCNQ2 pot baseline: 0.63

Results for CC1(C)CC(=O)C=C(NC2CCCC(O)C2)C1 (stereo not drawn) ?
KCNQ2 pot: 0.8; KCNQ2 pot baseline: -0.32

What do the screens show for `Cc1cc(C)c2c(n1)sc1c(-c3ccccc3)c(C#N)c(N)nc12`?
KCNQ2 pot: 1.13; KCNQ2 pot baseline: 0.61

How did CSc1nc(C)nc(N/C=C(\C#N)S(=O)(=O)c2ccccc2Cl)n1 do in these assays?
KCNQ2 pot: 1.13; KCNQ2 pot baseline: -0.14

Results for CCN1C(=O)c2ccccc2S(=O)c2ccc(C(=O)NCCCN3CCCC3=O)cc21 (stereo not drawn) ?
KCNQ2 pot: 3; KCNQ2 pot baseline: -2.49

Results for COc1ccc(S(=O)(=O)Nc2cc(C(=O)NCCCOC(C)C)ccc2N2CCOCC2)cc1 ?
KCNQ2 pot: 1.01; KCNQ2 pot baseline: -0.7

Results for Cc1ccc(CNC(=O)CCC2CCCN(Cc3cccc4ncccc34)C2)o1 (stereo not drawn) ?
KCNQ2 pot: 0.3; KCNQ2 pot baseline: -0.29

How did Cc1cccc(C)c1OCCNC(=O)C(=O)NCc1ccco1 do in these assays?
KCNQ2 pot: 0.3; KCNQ2 pot baseline: 2

What do the screens show for `CCOc1cc(NC(=S)NCCCN2CCOCC2)c(OCC)cc1NC(=O)C(C)C`?
KCNQ2 pot: 0.52; KCNQ2 pot baseline: 0.49

Results for O=C(CSc1nc2c(sc3ccccc32)c(=O)n1CCCN1CCCC1)NCc1ccco1 ?
KCNQ2 pot: 1.12; KCNQ2 pot baseline: -0.98

How did O=C(COC(=O)C1CC1)Nc1nc(-c2ccc(F)c(F)c2)cs1 do in these assays?
KCNQ2 pot: 1.37; KCNQ2 pot baseline: -2.33

What do the screens show for `Cc1cnc(NC(=O)Nc2ccccc2)c(C)n1`?
KCNQ2 pot: 0.67; KCNQ2 pot baseline: 0.34

How did CCN(CC)C(=O)CC(c1cc(OC)c(OC)c(OC)c1)c1c(O)cc(OC)cc1OC (stereo not drawn) do in these assays?
KCNQ2 pot: 0.79; KCNQ2 pot baseline: -1.4

What do the screens show for `COc1cc(C(=O)N/N=C/c2coc3ccccc3c2=O)cc(OC)c1OC`?
KCNQ2 pot: 0.14; KCNQ2 pot baseline: 1.12

How did NC(=O)COc1ccc(C23CC4CC(CC(C4)C2)C3)cc1 do in these assays?
KCNQ2 pot: 1.85; KCNQ2 pot baseline: -0.33

Results for Cc1ccc(S(=O)(=O)N2CCOCC2)cc1NC(=O)C(c1ccc(Cl)cc1)C(C)C (stereo not drawn) ?
KCNQ2 pot: 1.52; KCNQ2 pot baseline: -2.72

Results for Cc1ccc(C(=O)Nc2ccc(S(=O)(=O)N3CCOCC3)cc2)cc1C ?
KCNQ2 pot: 0.05; KCNQ2 pot baseline: -0.22

How did Cc1cccc(C(=O)NNC(=O)c2ccc(-c3ccccc3)cc2)c1 do in these assays?
KCNQ2 pot: 1.62; KCNQ2 pot baseline: 0.26

What do the screens show for `COCC(COCCCNC(=O)Nc1ccc(Br)cc1)OC` (stereo not drawn)?
KCNQ2 pot: 0.31; KCNQ2 pot baseline: -0.31

What do the screens show for `Cc1cc(C)c(C)c(S(=O)(=O)NCc2ccc(C(=O)N3CCOCC3)cc2)c1C`?
KCNQ2 pot: 0.91; KCNQ2 pot baseline: -0.01

Results for CCOc1ccc2nc(N(CCN(CC)CC)C(=O)c3ccc([N+](=O)[O-])cc3)sc2c1 ?
KCNQ2 pot: 0.03; KCNQ2 pot baseline: -1.33

How did CN(C)S(=O)(=O)N(CC(=O)NCc1ccccc1)c1ccccc1 do in these assays?
KCNQ2 pot: 0.18; KCNQ2 pot baseline: 0.58

Results for Nc1nc(SCC(=O)Nc2ccccc2)nc2nc3c(cc12)CCCC3 ?
KCNQ2 pot: 1.3; KCNQ2 pot baseline: 0.07

What do the screens show for `Cc1ccc(N=Nc2c(N)n[nH]c2N)cc1`?
KCNQ2 pot: 1.26; KCNQ2 pot baseline: -0.16

Part of the list above in order of SMILES length, lowest first:
How did c1ccc(Cn2nnnc2-c2ccco2)cc1 do in these assays?
KCNQ2 pot: 0.36; KCNQ2 pot baseline: -0.22

What do the screens show for `COc1ccc(OC)c2c(C)cc(N3CCCCCC3)nc12`?
KCNQ2 pot: 0.34; KCNQ2 pot baseline: 0.39

How did Cc1cccc(C)c1OCCNC(=O)C(=O)NCc1ccco1 do in these assays?
KCNQ2 pot: 0.3; KCNQ2 pot baseline: 2

What do the screens show for `CN(C)S(=O)(=O)N1CCN(c2cc(Cl)ccc2Cl)CC1`?
KCNQ2 pot: 0.02; KCNQ2 pot baseline: -1.21

How did CN(C)S(=O)(=O)N(CC(=O)NCc1ccccc1)c1ccccc1 do in these assays?
KCNQ2 pot: 0.18; KCNQ2 pot baseline: 0.58

How did O=C(COC(=O)C1CC1)Nc1nc(-c2ccc(F)c(F)c2)cs1 do in these assays?
KCNQ2 pot: 1.37; KCNQ2 pot baseline: -2.33

What do the screens show for `Cc1cc(C)c2c(n1)sc1c(-c3ccccc3)c(C#N)c(N)nc12`?
KCNQ2 pot: 1.13; KCNQ2 pot baseline: 0.61

Results for Cc1ccc(C(=O)Nc2ccc(S(=O)(=O)N3CCOCC3)cc2)cc1C ?
KCNQ2 pot: 0.05; KCNQ2 pot baseline: -0.22

What do the screens show for `C/C(CC(=O)Nc1ccc2c(c1)OCCO2)=N\NC(=O)Cc1ccccc1`?
KCNQ2 pot: 0.01; KCNQ2 pot baseline: -0.11

What do the screens show for `CCOc1cc(NC(=S)NCCCN2CCOCC2)c(OCC)cc1NC(=O)C(C)C`?
KCNQ2 pot: 0.52; KCNQ2 pot baseline: 0.49

Results for CCOC(=O)c1ccc(COc2nc3ccccc3nc2-c2ccccc2NC(C)=O)o1 ?
KCNQ2 pot: 0.77; KCNQ2 pot baseline: 0.52

Results for Cc1ccc(NC(=O)c2cc(S(=O)(=O)NCCC3=CCCCC3)ccc2F)cc1F ?
KCNQ2 pot: 0.69; KCNQ2 pot baseline: -1.47

Results for CCN1C(=O)c2ccccc2S(=O)c2ccc(C(=O)NCCCN3CCCC3=O)cc21 (stereo not drawn) ?
KCNQ2 pot: 3; KCNQ2 pot baseline: -2.49

What do the screens show for `CCN(CCNC(=O)C1CCCN(c2ncnc3c2nc2n3CCCCC2)C1)Cc1ccccc1` (stereo not drawn)?
KCNQ2 pot: 0.3; KCNQ2 pot baseline: 0.1

How did CCN(CC)C(=O)CC(c1cc(OC)c(OC)c(OC)c1)c1c(O)cc(OC)cc1OC (stereo not drawn) do in these assays?
KCNQ2 pot: 0.79; KCNQ2 pot baseline: -1.4

Results for CCOc1ccc2nc(N(CCN(CC)CC)C(=O)c3ccc([N+](=O)[O-])cc3)sc2c1 ?
KCNQ2 pot: 0.03; KCNQ2 pot baseline: -1.33

How did O=C(CS(=O)CC(=O)N(c1cccc(F)c1)C(C(=O)NC1CCCCC1)c1ccco1)Nc1ccc(F)cc1 (stereo not drawn) do in these assays?
KCNQ2 pot: 1.59; KCNQ2 pot baseline: -2.96

The list is partial; rates above refer to the full screens.
